# INS promoter inh: inhibitors of insulin promoter-driven GFP, primary screen, imaging, TRM-6 cells (human fetal islet line), eGFP reporter, cell count; reporter expression induced with tamoxifen; inhibition, % at 2 µM; hit rate 0.9% among 130,000; AID 1273, 2008;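 active = inhibition above the mean plus 3 SD, with well images judged a real hit on visual review, cut at about 60% in these data, passing the limit was not always enough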
# HSV augment: enhancers of HSV replication in host cells, fold increase, host cell viability. HSV replication augmentation in cells. maximum fold increase. hit rate 0.005% among 220,000. AID 1956, 2009;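 active = peak rise of 1.5-fold or more in the series; tested in PC3 cells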;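 also: first round at 10 µM; read as green reporter fluorescence; hits show the peak of a series up to 25 µM; 1 = signal of infected wells without compound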
# GALR2 ag: GALR2 receptor agonists, primary screen, cell-based; Galanin receptor type 2 (Homo sapiens), O43603; GALR2-expressing cells, agonist activation read-out; activation, %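 (tested at 5 µM)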; hit rate 0.48% among 140,000;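 active = above mean plus 3 SD of all compounds, about 5% in these data, not always enough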;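 also: 0% = vehicle buffer wells and 100% = reference agonist at full effect; tested in CHO reporter cells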
# Target sequence (O43603 whole entry, looked up): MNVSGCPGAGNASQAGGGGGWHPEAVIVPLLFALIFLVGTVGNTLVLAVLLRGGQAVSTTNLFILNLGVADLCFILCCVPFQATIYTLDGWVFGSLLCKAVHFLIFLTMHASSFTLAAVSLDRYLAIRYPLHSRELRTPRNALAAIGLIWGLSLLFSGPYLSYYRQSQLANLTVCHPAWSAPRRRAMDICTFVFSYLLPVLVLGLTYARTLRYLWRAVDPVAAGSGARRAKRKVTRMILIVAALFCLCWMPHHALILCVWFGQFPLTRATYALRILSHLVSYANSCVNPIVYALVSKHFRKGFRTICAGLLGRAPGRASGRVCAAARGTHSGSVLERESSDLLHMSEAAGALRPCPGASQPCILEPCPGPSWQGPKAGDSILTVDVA
# PKD1 inh: inhibitors of human PKD1 kinase, biochemical, fluorescence polarization. Serine/threonine-protein kinase D1 (Homo sapiens), Q15139. PKD1 kinase fluorescence polarization assay. inhibition, %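 (about 10 µM by stock and volumes)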. hit rate 0.056% among 200,000. AID 797, 2007;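 active = inhibition of 50% or more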;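 also: controls were vehicle for no effect and a reference inhibitor for full effect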
# RGS16-Gao HTS: modulators of RGS16 binding to Galphao, primary screen, biochemical, human proteins, multiplexed bead flow cytometry | bead-based flow cytometry RGS16-Galphao binding, fluorescence; actives lie on both sides | binding response (% of control), % at 10 µM | hit rate 0.38% among 220,000 | Regulator of G-protein signaling 16 (Homo sapiens) + Guanine nucleotide-binding protein …;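 active = below 25% or above 175%, edge rows of some plates excepted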;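 also: Galphao activated by GDP with aluminum fluoride before binding; 100% = wells without compound and 0% = beads without RGS; some results beyond the cut were filed as inactive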
# Target sequence (O15492 whole entry, looked up): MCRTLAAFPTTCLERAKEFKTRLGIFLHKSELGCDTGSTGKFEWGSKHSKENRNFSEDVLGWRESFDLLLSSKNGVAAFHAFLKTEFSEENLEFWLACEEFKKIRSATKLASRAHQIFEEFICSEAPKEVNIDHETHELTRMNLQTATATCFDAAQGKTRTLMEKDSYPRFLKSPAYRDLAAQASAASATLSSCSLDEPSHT
# Target sequence (P09471 whole entry, looked up): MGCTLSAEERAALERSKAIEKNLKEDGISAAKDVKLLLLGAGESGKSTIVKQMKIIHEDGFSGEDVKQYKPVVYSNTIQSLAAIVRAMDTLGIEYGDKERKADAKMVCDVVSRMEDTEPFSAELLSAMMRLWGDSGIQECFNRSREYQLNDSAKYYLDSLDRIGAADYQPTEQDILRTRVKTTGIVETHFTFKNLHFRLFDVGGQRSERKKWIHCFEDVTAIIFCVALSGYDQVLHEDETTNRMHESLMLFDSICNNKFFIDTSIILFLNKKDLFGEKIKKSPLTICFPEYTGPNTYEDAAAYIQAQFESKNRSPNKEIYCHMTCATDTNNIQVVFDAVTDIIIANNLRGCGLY
# INS promoter inh cell count: recorded beside INS promoter inh, whose call it bears; normalized cell count, %; measured here: cell count, toxicity; reference of the scale not given here;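 cells exposed to compound for 48 h; stained nuclei by imaging scaled within each plate; lower means fewer cells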
# HSV augment primary fold: second read-out of HSV augment, no call of its own (marks repeat the call); fold increase; compound at 10 µM; measured here: primary screen fold increase 10 uM; tested in PC3 cells;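 GFP signal in the first replicate; 1 = infected wells without compound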
# * marks the source's active call; other numbers are inactive results; i = inactive; . = not tested or not shown. Compounds as they come; overall some 1.2% were active at least once.
# Sequence of screens – INS promoter inh	INS promoter inh cell count	HSV augment	HSV augment primary fold	GALR2 ag	PKD1 inh	RGS16-Gao HTS
NC(=O)COC(=O)c1ccc(S(=O)(=O)N2CCCCCC2)cc1
    -51	117	i	0.84	-0.4	-2	103
CCOc1ncccc1C(=O)OCc1ccc(C#N)cc1
    .	.	i	1.1	-0.2	5	100
CCCc1cc(=O)oc2cc(OCc3cccc(OC)c3)c(Cl)cc12
    31	150	i	1	-1.4	-4	106
CN(C)c1nc(-c2ccccc2)ns1
    .	.	i	0.98	.	.	99
COc1cccc(CC2(CO)CCCN(Cc3ccc(C)s3)C2)c1 (stereo not given)
    .	.	i	0.98	.	-8	96
CC1(C)Cc2nc3oc4c(=O)n(CC(=O)Nc5ccc(Cl)cc5)cnc4c3cc2CO1
    .	.	i	0.62	.	.	91
COc1ccc(CNC(=O)Nc2cccc(C)c2)cc1
    -9	126	i	1	-1.6	5	92
CCOc1ccc(OCC)c(NC(=O)CCCN2C(=S)NC(C)(C)CC2C)c1 (stereo not given)
    -22	104	i	0.97	-1.1	-11	110
CC1(OC(=O)CCc2ccccc2)C(=O)C=C2C=C(c3ccc(C#N)cc3)N(Cc3ccco3)C=C2C1=O (stereo not given)
    .	.	i	1.3	.	.	106
CCOc1ccccc1OCCC(=O)OCC(=O)c1ccc[nH]1
    -52	184	i	0.98	.	-8	99
O=C1N/C(=C/c2cccn2-c2ccc(F)cc2)C(=O)N1Cc1ccccc1
    25	73	i	1.2	0.6	-6	96
COc1cc(OC)cc(C(=O)NNC(=O)c2ccc(S(=O)(=O)N(C)c3ccccc3OC)cc2)c1
    .	.	i	1.1	.	.	97
O=C(c1ccco1)N1C(=O)c2cccc3cccc1c23
    .	.	i	0.92	-0.9	1	99
CN(C(=O)C1CCCO1)c1nnc(-c2ccncc2)s1 (stereo not given)
    6	194	i	0.96	-1.0	-6	92
N#Cc1c(-c2ccccc2)nc(SCC(=O)NC2CCCCC2)[nH]c1=O
    .	.	i	1	.	1	104
O=C(CN1C(=O)c2ccccc2C1=O)NCCOc1ccccc1
    .	.	i	1	.	.	104
Cc1c(Nc2cc(Cl)c3nonc3c2[N+](=O)[O-])c(=O)n(-c2ccccc2)n1C
    100*	0.0*	i	0.61	.	1	82
Cc1ccc(NC(=O)CSc2nnc(-c3cccs3)n2Cc2ccco2)cc1
    -35	77	i	0.97	-1.4	-5	75
CCCOc1ccc(NC(=O)C2OC3OC(C)(C)OC3C3OC(C)(C)OC23)cc1 (stereo not given)
    11	80	i	0.95	-2.8	-11	82
N#Cc1cc2c(nc1SCc1ccccc1)CCCC2=O
    -412	84	i	0.96	-0.6	-12	97

# Continued.
# Sequence of screens – INS promoter inh	INS promoter inh cell count	HSV augment	HSV augment primary fold	GALR2 ag	PKD1 inh	RGS16-Gao HTS
Cc1cccc(C2c3[nH]c4ccccc4c3CCN2C(=O)c2cn(C)c3ccccc3c2=O)n1 (stereo not given)
    -13	40	i	0.98	.	2	113
Fc1ccccc1-c1csc(=Nc2cccnc2)n1CC1CCCO1 (stereo not given)
    20	81	i	0.93	-2.0	-5	103
COc1ccc(S(=O)(=O)N/N=C\c2ccc3c(c2)OCO3)cc1
    35	123	i	0.97	-4.0	2	75
Clc1ccc(-c2ccnc(Oc3ccc4ccccc4c3)n2)cc1
    -20	107	i	0.75	-2.4	-11	105
CCOC(=O)/C=C/C(=O)OCC(=O)Nc1ccc([N+](=O)[O-])cc1
    .	.	i	0.96	.	.	99
O=c1c2ccc(-c3nnc4n3-c3ccccc3SC4)cc2nc2n1CCCCC2
    14	83	.	.	-1.2	-9	.
O=C(NCc1cccs1)C(=O)NCC1OCCCN1S(=O)(=O)c1cccs1 (stereo not given)
    -20	132	i	0.95	.	-4	101
Cn1c(N)c(C(=O)COC(=O)COc2ccc3ccccc3c2)c(=O)n(C)c1=O
    14	120	i	1	.	4	99
Cc1ccc(OCC(=O)Nc2cccc(S(=O)(=O)N3CCCCC3)c2)c([N+](=O)[O-])n1
    .	.	i	1.1	-0.1	-1	67
CC(C)CC(O)C1CCN(C(=O)CCc2nnc(-c3ccccc3)o2)CC1 (stereo not given)
    -6	100	i	1.1	.	0	110
O=C(Nc1nnc(-c2ccco2)s1)C1CCCCC1
    .	.	i	1	-0.5	1	101
CCOc1ccccc1C1C(C(=O)Nc2ccccc2OC)=C(C)Nc2nc(CCCO)nn21 (stereo not given)
    .	.	i	0.84	.	-17	103
CC(C)(C)OC(=O)N[C@@H](Cc1ccccc1)[C@H](O)c1ccco1
    .	.	i	1	.	.	102
CC(C(=O)NCc1ccc2c(c1)OCO2)c1ccc([N+](=O)[O-])cc1 (stereo not given)
    35	90	i	1	.	-9	100
CCN(CC)CCCNC(=O)CC1Oc2ccc(C)cc2NC1=O (stereo not given)
    .	.	i	0.91	-2.1	0	90
O=C(COc1ccc(S(=O)(=O)NC2CCCC2)cc1)NCC1CCCO1 (stereo not given)
    .	.	i	0.99	.	-7	99
O=C(c1ccc2c(c1)OCO2)C1CCCN(C(=O)c2cnn(Cc3ccccc3)c2)C1 (stereo not given)
    .	.	i	0.95	.	-3	99
COCCn1c(=O)c2c3c(sc2n(CC(N)=O)c1=O)CCCC3
    6	91	.	.	0.1	-2	.
CCCn1c(SCC(=O)Nc2cc(S(=O)(=O)N(C)C)ccc2OC)n[nH]c1=O
    .	.	i	0.92	.	-2	96
Cc1[nH]c2ccccc2c1/C=N/NC(=O)Cc1cccs1
    17	150	i	0.93	0.3	6	104

# Other results follow:
# Sequence of screens – INS promoter inh	INS promoter inh cell count	HSV augment	HSV augment primary fold	GALR2 ag	PKD1 inh	RGS16-Gao HTS
Cc1cc(=O)n2c3ccccc3n(CC(O)CN3CCOCC3)c2c1C#N (stereo not given)
    .	.	i	1.1	.	-2	95
FC(F)(F)c1nc2ccccc2c2nc3ccccc3n12
    -57	126	i	0.88	-0.4	-13	98
Cc1ccc(-n2nc(-c3ccco3)cc2C(=O)O)cc1
    .	.	i	0.97	.	.	95
Oc1c(C(c2ccc(F)cc2)N2CCc3ccccc3C2)sc2ncnn12 (stereo not given)
    43	141	i	0.9	-0.1	1	102
CCOc1ccc(CCNC(=O)C2CCN(S(=O)(=O)CC)CC2)cc1OCC
    .	.	i	1.2	-0.3	-18	93
CC1Cc2ccccc2N1C(=O)CSc1nn2c(=O)c(C(C)(C)C)nnc2s1 (stereo not given)
    .	.	i	0.82	.	-9	101
CCCC(=O)Nc1c(C(=O)OCC)oc2ccccc12
    .	.	i	0.93	.	-1	106
CC(=O)Nc1ccccc1NC(=O)C/C(C)=N/NC(=O)c1ccccn1
    -8	100	i	0.98	.	-3	106
N/N=C(\c1ccccc1)C12CN3CN(CN(C3)C1)C2
    22	110	i	0.9	0.3	2	108
Cc1cc2cc(C(c3nnnn3Cc3ccco3)N3CCc4ccccc4C3)c(=O)[nH]c2cc1C (stereo not given)
    .	.	i	1.1	-1.4	0	85
CCOC(=O)C1(Cc2cccc(OC)c2)CCN(Cc2cccc(OC)c2OC)CC1
    .	.	i	0.92	.	6	100
O=c1[nH][nH]c(C(F)(F)F)c1C=Nc1ccccc1Cl
    13	132	i	0.76	-2.6	-3	103
O=S(=O)(Nc1ccc(Cc2ccncc2)cc1)c1ccc(Br)cc1
    14	133	.	.	-2.0	16	1.0*
COc1cc2c(cc1OC)CN(S(=O)(=O)c1cccs1)CC2
    29	96	i	0.9	-1.3	2	106
C#CCNC(=O)C1=C[C@@H](c2ccccc2)C[C@@H](OCc2ccc(CO)cc2)O1
    .	.	i	0.86	.	3	93
CCc1cc(=O)oc2cc(OCC(=O)N(CC)CC)c(Cl)cc12
    .	.	i	0.92	-3.3	-2	100
Cc1cccc(C)c1-n1nnnc1C(C)(C)N1CCN(N=O)CC1
    .	.	i	1.1	.	.	101
CC(c1ccccc1)N1C(=O)c2ccc(C(=O)NCc3ccco3)cc2C1=O (stereo not given)
    -440	82	i	0.97	-1.9	3	101
CC(C)NC(=O)Cn1c(SCC(=O)c2ccc(F)cc2)nc2ccccc21
    -224	70	i	0.88	-1.7	-2	85
O=S(=O)(c1cccs1)N1CCC(CO)(Cc2ccc(Cl)cc2)CC1
    .	.	i	0.93	.	2	113

# Following part
# Sequence of screens – INS promoter inh	INS promoter inh cell count	HSV augment	HSV augment primary fold	GALR2 ag	PKD1 inh	RGS16-Gao HTS
c1ccc(-n2cnnc2SCc2cn3cccnc3n2)cc1
    -3	138	i	0.98	-0.4	2	93
Cc1cc(C)c(N(C(=O)Cn2nnc3ccccc32)C(C(=O)NC(C)(C)C)c2ccsc2)c(C)c1 (stereo not given)
    -23	63	i	1	-1.1	2	94
O=C1/C(=C/c2ccncc2)SC(=S)N1Nc1ccccc1
    .	.	i	0.88	.	.	98
O=C(O)c1cc(S(=O)(=O)N2CCCCC2)sc1Cl
    .	.	i	0.96	0.5	12	109
O=C(O)c1ccc2cccnc2c1O
    .	.	i	0.9	.	.	99
CC(=O)Nc1ccccc1/C=C/c1ccc2c(C)ccc(O)c2n1
    -7	67	i	0.8	-2.0	2	100
O=C(CSc1cn(CCNC(=O)c2ccccc2)c2ccccc12)NCc1ccco1
    .	.	i	0.86	-2.3	0	110
Cc1ccnc(SCCn2c(N3CCCCC3)nc3c2c(=O)n(C)c(=O)n3C)n1
    -22	62	i	0.95	-0.9	-11	102
N#C/C(=C/c1cn(-c2ccccc2)nc1-c1cccc(OCc2ccccc2)c1)C(=O)NCCCn1ccnc1
    5	55	i	0.83	0.2	6	95
Clc1ccc(NC2=NCCCCC2)cc1
    .	.	i	0.95	-1.2	0	66
CC1CCN(C(=O)CSc2nnc(Cc3cccn3C)n2CCc2ccccc2)CC1
    .	.	i	1.1	-1.0	-6	103
CCOC(=O)c1cc(C)sc1/N=C/C1=C(O)CCCC1=O
    20	123	i	0.85	-0.3	-5	104
CCOC(=O)NC(=O)c1cn(Nc2ccccc2C(F)(F)F)c(=O)[nH]c1=O
    .	.	i	0.96	.	.	97
Cn1c(=O)c(=O)n(C)c2cc(S(=O)(=O)N3CCc4ccccc43)ccc21
    .	.	i	0.7	-1.7	9	117
COc1ccccc1C(=O)N1CCN(Cc2nc(CC3CC3)no2)CC1
    .	.	i	0.96	.	-2	105
CC1CN(c2nc(-c3ccccc3)nc3ccccc23)CC(C)O1 (stereo not given)
    92*	44*	i	0.95	-0.1	-3	102
Cc1ccccc1CNC(=O)CC1C(=O)NCCN1CC1CCCCC1 (stereo not given)
    .	.	i	0.95	.	-9	101
CCCC(=O)Nc1ccc(C(=O)NNC(=O)c2cccc([N+](=O)[O-])c2)cc1
    20	99	i	0.99	.	1	125
O=C(NCCN1CCOCC1)c1ccc2c(c1)N(Cc1ccc(Cl)cc1)CCS2
    .	.	i	0.86	.	.	117
CCCn1nc(C(=O)OCC(=O)NC(C)c2ccccc2)c2ccccc2c1=O (stereo not given)
    .	.	i	1	.	4	100

# New compounds follow:
# Sequence of screens – INS promoter inh	INS promoter inh cell count	HSV augment	HSV augment primary fold	GALR2 ag	PKD1 inh	RGS16-Gao HTS
O=C(CC1C(=O)OCC2CCCCN21)Nc1ccccc1C(F)(F)F (stereo not given)
    -21	101	i	0.97	.	-2	103
Cc1cc(N2C(=O)C(O)=C(C(=O)c3cccs3)C2c2ccccc2)no1 (stereo not given)
    -33	143	i	0.83	-0.6	-1	101
COc1c([N+](=O)[O-])c(=O)n(-c2ccccc2)c2ccccc12
    23	51	i	1	-1.0	-15	103
Cc1nc(S/C(=C/c2ccc(OCc3ccc(C(=O)O)cc3)cc2)C(=O)O)n[nH]1
    .	.	i	0.99	.	3	103
COc1ccc(S(=O)(=O)N2CCC(C)CC2)cc1Br
    28	137	i	0.79	-0.4	3	86
COc1ccc(-c2csc(NC(=O)c3nc(-c4ccccc4)oc3C)n2)cc1
    -26	87	i	0.99	-2.0	0	107
COc1ccc(N2CC(C)Cn3c2nc2c3c(=O)n(Cc3ccccc3F)c(=O)n2C)c(OC)c1 (stereo not given)
    .	.	i	0.95	-1.4	-18	98
CNC(=O)CN(C)S(=O)(=O)c1ccc(F)cc1
    -50	90	i	1.5	-3.1	-5	109
CCCn1c(Nc2ccc(Cl)cc2)nc2ccccc21
    8	50	i	0.88	-0.8	-7	100

# Compounds above that contain bromine, in the order listed:
# Sequence of screens – INS promoter inh	INS promoter inh cell count	HSV augment	HSV augment primary fold	GALR2 ag	PKD1 inh	RGS16-Gao HTS
O=S(=O)(Nc1ccc(Cc2ccncc2)cc1)c1ccc(Br)cc1
    14	133	.	.	-2.0	16	1.0*
COc1ccc(S(=O)(=O)N2CCC(C)CC2)cc1Br
    28	137	i	0.79	-0.4	3	86

# Screens: PubChem BioAssay, several laboratories
